# MT1-MMP act inh = inhibitors of human MT1-MMP activation. GFP/RFP ratio change, % at 20 µM. actives 0.061% (n = 360,000). HT1080 RFP-PRO-GFP cells, GFP/RFP ratio fluorescence, overnight; percent of plate control window, DMSO zero. P50281. AID 651647;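 active means GFP/RFP ratio change of at least 30% with cell ATP level not reduced by more than half and red fluorescence within 50% of control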; further: strong numbers were not always called active
#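 Material: RFP-PRO-GFP reporter HT1080 cells. Dosing: single-point 20 µM compound, 1% DMSO. Controls: DMSO and RFP-L50D-GFP cell wells. Timing: cells overnight before dosing, compound overnight, 37 °C, 5% CO2. Measure: GFP/RFP fluorescence ratio.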
# PABP FP inh = blocks human PABP binding to poly(A) RNA; inhibition, % at 35 µM; P11940; actives 1% (n = 290,000); fluorescence polarization;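 active means 50% or more with normal probe brightness, or confirmed in later tests; about a fifth of its hits are not listed in these tables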;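 further: calls also rest on retests at 20 µM and on dose response follow-up; controls were probe without protein and protein plus probe with vehicle; some compounds called inactive have numbers as strong as hits; many hits fall short of the cut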
# Target sequence (P11940 whole entry, looked up): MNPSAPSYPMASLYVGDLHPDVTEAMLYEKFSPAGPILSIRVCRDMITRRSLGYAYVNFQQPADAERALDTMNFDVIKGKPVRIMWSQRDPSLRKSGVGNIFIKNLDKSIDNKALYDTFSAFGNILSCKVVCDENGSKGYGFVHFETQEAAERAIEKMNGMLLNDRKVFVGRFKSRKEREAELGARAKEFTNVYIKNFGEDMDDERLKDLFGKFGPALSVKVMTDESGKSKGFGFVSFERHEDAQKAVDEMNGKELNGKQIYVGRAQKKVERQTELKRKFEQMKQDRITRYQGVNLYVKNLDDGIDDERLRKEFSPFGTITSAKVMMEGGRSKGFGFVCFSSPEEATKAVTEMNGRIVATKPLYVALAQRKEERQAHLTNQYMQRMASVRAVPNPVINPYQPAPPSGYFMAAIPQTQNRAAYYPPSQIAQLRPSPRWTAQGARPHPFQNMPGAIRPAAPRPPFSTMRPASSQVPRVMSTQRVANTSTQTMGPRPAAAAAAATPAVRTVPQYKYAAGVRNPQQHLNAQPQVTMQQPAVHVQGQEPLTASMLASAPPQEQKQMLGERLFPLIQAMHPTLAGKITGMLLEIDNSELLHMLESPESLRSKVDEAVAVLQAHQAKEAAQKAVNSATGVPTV
# HIV Env fusion = HIV envelope-mediated fusion inhibition. HeLa-JRFL Env/CEM21 cell fusion, luciferase. inhibition, % at 12.3 µM. actives 1.1% (n = 360,000);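 active means mean replicate inhibition score of at least 50 and every replicate individually at or above 50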;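 further: 0% = plate neutral controls and 100% = maraviroc near 300 nM; one replicate is shown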
# CSC inhib = blocks cancer stem cells; cancer stem cell-like cells viability, luminescence; inhibition, % at 7.5 µM; actives 1.1% (n = 300,000); AID 2717;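 active means mean at 75% or more and at least half the replicates too; tested in HMLE shEcad cells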;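 further: 0% = median of negative and 100% = median of positive control wells; the first replicate is given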
# Rce1 inh = inhibitors of yeast Ras-converting enzyme; Q03530; yeast membranes, quenched prenylated peptide cleavage fluorescence; calls only; actives 0.27% (n = 290,000); AID 2563;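 active means fall in fluorescence gain of 50% or more versus controls, with final raw signal at or below 3038400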;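 further: plate controls were neutral control wells for no effect and wells lacking membranes for full effect; tested at 10 µM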
# Yeast UUG start = alters start codon recognition fidelity in yeast; S. cerevisiae UUG-firefly luciferase reporter, luminescence/redox ratio; activity score, % at 18.7 µM; actives 0.13% (n = 350,000);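 active means replicate mean at a twofold rise or more, about +100% in these data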;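 further: firefly luciferase made from a UUG start codon reports start codon fidelity; reporter light over untreated wells divided by growth signal over untreated wells; some hits fall short of that in this replicate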
# eIF4H inh = inhibitors of RNA binding by human eIF4H | eIF4H fluorescence polarization binding assay | inhibition, % at 35 µM | actives 0.94% (n = 290,000);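 active means 50% or more with normal probe brightness, or confirmed in later tests; about a fifth of its hits are not listed in these tables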;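 further: calls also rest on retests at 20 µM and on dose response follow-up; 0% = protein and probe with vehicle and 100% = probe without protein; strong numbers were not always called active; many hits fall short of the cut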
# eIF4H inh retest = further read-out of eIF4H inh, marked with its call; inhibition, %; compound at 20 µM; confirmation average;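 mean of two retest wells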
# PABP FP inh retest = recorded beside PABP FP inh, whose call it bears; inhibition, %; compound at 20 µM; confirmation repeats;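 mean of two retest wells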
# MT1-MMP act inh RFP = further read-out of MT1-MMP act inh, marked with its call; RFP signal change, %; measured here: RFP expression control read;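 0 = vehicle wells; hits needed this value within 50% of zero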
# Active calls of the source: *; i = inactive; . = not tested or not shown. The list is partial; rates above refer to the full screens.
SMILES,MT1-MMP act inh,MT1-MMP act inh RFP,PABP FP inh,HIV Env fusion,CSC inhib,Rce1 inh,Yeast UUG start,eIF4H inh,others
Nc1scc(-c2ccncc2)c1Cl,0,0,3,.,-4,i,-3,4,
CC(C)(C)OC(=O)N1CCC(C(=O)N2CCCCCC2)CC1,-2,1,-14,.,-11,i,2,-8,
O=C(Nc1ccc(N2CCCCC2)c(C(=O)O)c1)c1ccco1,-6,2,2,-29,-9,i,-20,-2,
Cc1cccc(N2CCN(C(=O)NC3CCCCC3)CC2C)c1 (centres undefined),0,0,13,12,5,i,-2,-6,
Cn1ncc(Br)c1NC(=O)Nc1ccc(OC(F)(F)F)cc1,4,0,-6,11,6,i,.,-12,
Cc1ccccc1CN(C)CCc1ccccn1,0,4,12,-11,-8,i,.,40,
CC1CCN(S(=O)(=O)N2CCC(C(=O)NC3CCCC3)CC2)CC1,7,3,6,-25,6,i,.,-6,
CCc1nc2ccc(C(=O)NCc3ccc4c(c3)OCO4)cn2c1N(C)Cc1cccs1,0,0,.,-4,.,.,-6,.,
Cc1ccc(S(=O)(=O)NC(=O)Nc2ccc(OC(F)F)cc2)cc1,-4,-3,11,10,-10,i,-14,-4,
O=C(c1cc(=O)[nH]c2ccccc12)N1CCN(Cc2ccc3c(c2)OCO3)CC1,-1,-2,.,5,.,.,-14,.,
COc1ccc(-n2cnc3cc(NS(=O)(=O)c4ccccc4)ccc32)cc1,0,-5,16,.,-1,i,-21,-6,
CC1(C(=O)NS(=O)(=O)c2ccc(C#N)cc2)CCN1C(=O)Cc1ccsc1 (centres undefined),1,6,.,-27,.,.,-8,.,
COc1ccc(C2CC(c3cccc(C)c3)n3ncnc3N2)cc1 (centres undefined),0,2,-14,26,.,i,-4,14,
O=C(NC(=S)NC1CCCC1)c1ccccc1Br,-1,0,16,-15,-5,i,-9,5,
CCCCOc1ccc(C(=O)N2CCCC2)cc1,5,6,-17,.,-1,i,-18,5,
Brc1c(CSc2nc3ccccc3o2)nc2ncccn12,-1,1,-1,-55,14,i,-13,0,
Cc1cccc(NC(=O)c2ccc(S(=O)(=O)N3CC(C)OC(C)C3)cc2)n1 (centres undefined),-5,-19,.,56*,-4,i,-9,.,
O=[N+]([O-])c1ccc(/C=N/n2c(-c3cccnc3)n[nH]c2=S)cc1,3,1,8,-1,-13,i,-4,0,
O=C(CN1CCOCC1)Nc1ccccc1Cl,1,4,-8,.,.,i,-12,-4,
CN(C)C(=O)c1c2c(nc3ccccc13)-c1ccccc1CC2,1,3,1,20,-8,i,.,-2,
C=CCn1c(COc2ccc(F)cc2)nnc1SCC(=O)NC1CCCC1,-1,0,.,.,-3,i,-9,.,
CCCN(CCC)c1nc(Cl)nc(NCCN2CCOCC2)n1,9,-6,10,-6,-2,i,-9,-4,
O=C(c1ccccc1)N1CC(COc2ccccc2)OC(c2cccnc2)O1 (centres undefined),1,3,77*,.,6,i,-8,63*,eIF4H inh retest=74*;PABP FP inh retest=107*
Cc1nn(Cc2ccccc2Cl)c(Cl)c1/C=C/C(=O)OCC(=O)NC(N)=O,-2,3,-9,.,8,i,-7,-2,
O=C(NCc1ccccn1)Nc1ccc(Br)cc1,4,3,-9,.,-2,i,-20,-11,

# Pulled by compound from the list above:
SMILES,MT1-MMP act inh,MT1-MMP act inh RFP,PABP FP inh,HIV Env fusion,CSC inhib,Rce1 inh,Yeast UUG start,eIF4H inh,others
Cc1cccc(NC(=O)c2ccc(S(=O)(=O)N3CC(C)OC(C)C3)cc2)n1 (centres undefined),-5,-19,.,56*,-4,i,-9,.,
O=C(CN1CCOCC1)Nc1ccccc1Cl,1,4,-8,.,.,i,-12,-4,

# Other structures
SMILES,MT1-MMP act inh,MT1-MMP act inh RFP,PABP FP inh,HIV Env fusion,CSC inhib,Rce1 inh,Yeast UUG start,eIF4H inh,others
O=C(Nc1nc(-c2cccs2)c(C(=O)C(F)(F)F)s1)c1ccccc1,9,-34,7,18,37,i,-18,1,
CCCNCc1cc(OC)c(OCc2ccccc2)cc1Br,-4,-7,-5,5,-10,i,2,-10,
O=c1c2oc3ccccc3c2[nH]c(=S)n1-c1ccc(F)cc1,-2,-4,-1,-7,5,i,-16,15,
CC(C)c1cccc(-c2csc(C(O)c3ccc(F)cc3)n2)c1 (centres undefined),-2,-4,.,19,.,.,-30,.,
Nc1nc(CN2CCN(Cc3ccccc3)CC2)nc(Nc2ccccc2)n1,-1,2,9,.,-5,i,-40,2,
O=C(NCCc1ccncc1)Nc1ccccc1,-3,1,10,.,-3,i,-24,1,
CSc1ccc(Cl)c(C(=O)OCC(=O)N2CCNC2=O)c1,1,-1,.,.,-14,.,0,.,
CCOC(=O)c1cc(NC(=O)COc2ccc([N+](=O)[O-])cc2)cc(C(=O)OCC)c1,3,0,-6,-35,-1,i,-19,-6,
COC(=O)CSc1nc2sc(C)c(C)c2c(=O)n1C,-5,3,-1,-17,-6,i,-3,-3,
CC(C)[C@H](NC(=O)N1c2ccccc2NC(=O)[C@@H]1C(C)C)C(=O)N[C@H](C(=O)O)c1ccccc1,7,5,16,.,-1,i,-14,0,
COc1ccc(CNc2ncnc3cc(Cl)ccc23)cc1,-2,-23,2,26,-8,i,.,9,
C=CCO/N=C(/C)c1c(O)c(CC)c(-c2ccccc2)n(-c2ccccc2)c1=O,5,4,-8,.,.,i,280*,-13,
CCNC(=O)C1(C)CCN(C(=O)c2cccnc2SC)C1 (centres undefined),3,7,.,-1,.,.,-13,.,
Cc1ccc(Cl)cc1Nc1nc(-c2sc(NC(=O)c3ccccc3)nc2C)cs1,.,.,12,.,2,i,.,-10,
CNC(=O)CN(c1ccc(Oc2ccccc2)cc1)S(=O)(=O)c1ccc(C)cc1,2,2,-1,.,-7,i,-13,-2,
Cc1[nH]nc(Nc2ccccc2)c1[N+](=O)[O-],6,1,9,-439,3,i,-14,0,
CCC(C(=O)NC1CCCC1)N(C(=O)c1snc(C(N)=O)c1N)c1ccc(C)cc1C (centres undefined),-4,-2,4,9,-6,i,.,-4,
CC1(c2ccccc2)NC(=S)N2C1NC(=S)N2c1ccccc1 (centres undefined),8,2,4,-39,1,i,2,-2,
C=CCSC1=NN2CCS(=O)(=O)N=C2S1,1,0,-1,4,-2,i,.,-9,
COCCN(CC(=O)Nc1cccc(C)c1C)C(=O)Cc1cccs1,-1,4,.,4,-30,.,-2,.,
Cc1oc(-c2ccccc2F)nc1CS(=O)(=O)CC(=O)NCCCN1CCN(C)CC1,1,6,6,5,2,i,-5,-2,
COc1ccccc1-c1c(C)c(C)nc(N)c1C#N,2,-5,-10,14,.,i,-8,-2,
O=C(CNC(=O)c1cccs1)N/N=C/c1c[nH]c2ccccc12,3,0,-12,-3,13,i,.,1,
COc1ccc(Br)cc1Cn1nnc(C(=O)Nc2ccc3c(c2)OCCO3)c1N,-3,-6,1,-37,.,i,-20,4,
CC(=O)Oc1c2occc2cc2ccc(=O)oc12,5,3,17,.,0,i,-10,6,
SMILES,MT1-MMP act inh,MT1-MMP act inh RFP,PABP FP inh,HIV Env fusion,CSC inhib,Rce1 inh,Yeast UUG start,eIF4H inh,others
Cc1ccc(Cn2cccc2C2=NC(C)CO2)cc1 (centres undefined),-2,1,3,11,-6,.,-7,-2,
CN(CCCN1CCOCC1)C(=O)c1cc(COc2c(F)cccc2F)on1,3,3,-16,4,7,i,-15,-4,
CCn1c(SCC(N)=O)nnc1-c1ccc2[nH]c(C)c(C)c2c1,3,5,-2,-74,-4,i,-8,6,
Cn1c(=O)c2c(nc(NCCCO)n2Cc2cccc(C(F)(F)F)c2)n(C)c1=O,-6,-4,7,.,-4,i,1,3,
Cc1cccc(/C=N/NC(=O)c2cccc(NC(=O)c3ccccc3)c2)n1,0,-1,4,-6,14,i,.,4,
Cc1ccc(OCC(=O)N/N=C/c2cccnc2)cc1C,5,3,-3,2,5,i,-10,5,
S=C(Nc1cccc(Br)c1)N1CCn2cccc2C1c1cccnc1 (centres undefined),1,2,4,2,.,i,.,1,
CN(C)c1ccc(NC2=C(Cl)C(=O)c3ccccc3C2=O)cc1,-2,-9,-8,-26,147*,i,-20,-2,
COCCNC(=O)C1(C)CCCN(C(=O)c2cc(OC)c(OC)c(OC)c2)C1 (centres undefined),-4,2,.,-117,.,.,-12,.,
Cc1cc(NS(=O)(=O)c2ccccc2)ccc1NS(=O)(=O)c1ccccc1,-1,-1,.,2,.,.,-3,.,
CC(=O)N1c2ccc(S(=O)(=O)NCCC(=O)NCCc3ccc(Cl)cc3)cc2CC1C (centres undefined),-3,-19,-2,14,-6,i,9,10,
COC(=O)c1nnn(CC(=O)Nc2cccc(Cl)c2C)c1C(=O)OC,7,1,2,-7,-7,i,-6,8,
CCC(C(=O)c1ccc2ncccc2c1)c1ccccc1 (centres undefined),1,-7,2,12,-6,.,.,6,
COc1cccc(/C=C/C(=O)N2CCN(c3ccccn3)CC2)c1,-1,3,12,-8,-10,i,8,-5,
COc1ccc(C(OCC2CO2)c2ccc(OC)cc2)cc1 (centres undefined),.,.,4,.,-11,i,.,0,
C[C@@H]1C(c2ccc(F)cc2)=NN(c2ccc(Br)cc2)[C@H]1C(=O)N1CCOC1=O,-1,-5,.,2,.,.,-5,.,
CCC(=O)c1ccc2c(c1)N(CCCN(C)C)c1ccccc1S2,-4,2,.,24,4,i,-1,.,
Cc1nc2c3ccccc3n(CCN3CCCCC3)c2s1,.,.,1,.,-3,i,.,4,
Cc1ccc(-c2noc(CN(C(=O)C34CC5CC(CC(C5)C3)C4)C(C)C)n2)cc1,4,2,-8,1,7,i,-10,-13,
O=C(Nc1nnc(SCC(=O)N2CCCCC2)s1)c1cccs1,2,3,1,0,-7,i,-6,-11,
COc1ccc(N2CCN(C(=O)CCCCCn3c(=S)[nH]c4ccc(N5CCOCC5)cc4c3=O)CC2)cc1,2,-27,.,-13,.,.,-11,.,
CCc1nnc(SCC(=O)Nc2ccccc2)nc1CC,1,0,0,.,5,i,-9,-15,
Cc1cccc(N(C)C(=O)c2cc3cc4ccc(C)cc4nc3o2)c1,1,-11,3,-160,.,i,-6,-3,
FC(F)(F)c1ccccc1Cc1c(C2CCCCC2)nc2c3ccccc3ccn12,-3,-1,.,13,.,.,-17,.,
CC(=O)c1cccc(NC(=O)c2ccc(N(Cc3ccccc3)S(C)(=O)=O)cc2)c1,3,-5,7,16,-1,i,-11,0,
SMILES,MT1-MMP act inh,MT1-MMP act inh RFP,PABP FP inh,HIV Env fusion,CSC inhib,Rce1 inh,Yeast UUG start,eIF4H inh,others
COc1ccc(C(CC(=O)Nc2ccc(C)cn2)N2Cc3ccccc3C2=O)cc1 (centres undefined),-2,-2,10,9,.,i,-7,-11,
Cc1ccc(NC(=O)c2ccc(S(=O)(=O)N3CCCCC3)cc2)nc1,4,-4,.,-4,-9,.,-11,.,
COc1cccc(N(C(=O)CNC(=O)c2ccco2)C(C(=O)NC2CCCC2)c2ccncc2)c1 (centres undefined),1,1,-7,.,8,i,-12,-6,
Cc1cccc(NC(=S)N(CCc2nc3cc(C)c(C)cc3[nH]2)Cc2cccnc2)c1,-1,-2,-7,22,.,i,.,1,
COc1ccccc1NS(=O)(=O)c1cccc(C(=O)N/N=C/c2ccccc2OCC(=O)O)c1,0,1,-5,2,-9,i,-9,2,
COc1cccc(NC2=NC3(CCCCC3)N=C(N)N2)c1,4,5,7,-161,-19,i,0,2,
COC(=O)CSc1nc(N2CCCCC2)c2c(c1C#N)CCCC2,1,0,-8,-15,-4,i,-9,-3,
COc1cccc(CN2CCNC(=O)C2CC(=O)N(C)CC2CCOCC2)c1 (centres undefined),1,0,-4,.,-19,i,0,5,
Cn1c(OCc2ccc3c(c2)OCO3)nc2c1c(=O)n(Cc1ccc(Cl)c(Cl)c1)c(=O)n2C,2,-3,10,.,-12,i,-8,-11,
O=C(NCCc1ccc(Cl)cc1)C(=O)Nc1cc2c3c(c1)CC(=O)N3CCC2,1,-3,.,11,3,i,-8,.,

# High-throughput results as filed in PubChem.
